# Screens as filed in PubChem.
# Polio RdRp inh = poliovirus RNA polymerase inhibition. P03300. poliovirus polymerase elongation, fluorescence polarization; hits give low values. % elongation, % (compound at 16.7 µg/mL). 0.66% of 150,000 active. AID 588519; in the data active = % elongation below about 90%; also: some results filed as inactive read as strong as hits
# Target sequence (P03300 1749-2209 limits assumed): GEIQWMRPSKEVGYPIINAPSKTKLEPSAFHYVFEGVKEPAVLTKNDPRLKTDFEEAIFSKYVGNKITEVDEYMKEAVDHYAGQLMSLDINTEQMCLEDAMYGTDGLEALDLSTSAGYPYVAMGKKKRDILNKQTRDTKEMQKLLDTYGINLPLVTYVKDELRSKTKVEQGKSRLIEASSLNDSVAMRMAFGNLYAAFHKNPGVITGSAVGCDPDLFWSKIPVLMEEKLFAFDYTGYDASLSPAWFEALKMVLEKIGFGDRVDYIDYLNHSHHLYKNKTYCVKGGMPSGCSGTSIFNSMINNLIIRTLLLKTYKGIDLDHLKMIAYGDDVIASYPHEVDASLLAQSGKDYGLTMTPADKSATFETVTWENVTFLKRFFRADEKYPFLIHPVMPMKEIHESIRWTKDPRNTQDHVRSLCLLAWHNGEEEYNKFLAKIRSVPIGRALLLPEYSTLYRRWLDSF
# Mtb MenB inh = blocks the Mycobacterium tuberculosis MenB enzyme. P9WNP5. MenB enzyme assay, absorbance read-out; some hits fall short of the stated cut. inhibition, %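 (about 12 µg/mL by stock and volumes)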. 0.43% of 100,000 active. AID 540299;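 active = mean of two replicates above 30%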;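 also: 0% = no compound and 100% = wells with inactive enzyme; the first replicate is given; strong numbers were not always called active; inactives centre near -10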
# Mtb MbtI inh = MbtI salicylate synthase inhibition | inhibition, %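 (about 17 µg/mL by stock and volumes)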 | 0.89% of 100,000 active | purified MbtI enzyme, fluorescence intensity read-out;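 active = above 50% in both replicates, above 80% if mildly self-fluorescent; inactive = the rest, strongly fluorescent compounds included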;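 also: 0% = mean of negative and 100% = mean of positive controls; one replicate is shown; some compounds called inactive have numbers as strong as hits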
# Target sequence (P9WFX0 whole entry, looked up): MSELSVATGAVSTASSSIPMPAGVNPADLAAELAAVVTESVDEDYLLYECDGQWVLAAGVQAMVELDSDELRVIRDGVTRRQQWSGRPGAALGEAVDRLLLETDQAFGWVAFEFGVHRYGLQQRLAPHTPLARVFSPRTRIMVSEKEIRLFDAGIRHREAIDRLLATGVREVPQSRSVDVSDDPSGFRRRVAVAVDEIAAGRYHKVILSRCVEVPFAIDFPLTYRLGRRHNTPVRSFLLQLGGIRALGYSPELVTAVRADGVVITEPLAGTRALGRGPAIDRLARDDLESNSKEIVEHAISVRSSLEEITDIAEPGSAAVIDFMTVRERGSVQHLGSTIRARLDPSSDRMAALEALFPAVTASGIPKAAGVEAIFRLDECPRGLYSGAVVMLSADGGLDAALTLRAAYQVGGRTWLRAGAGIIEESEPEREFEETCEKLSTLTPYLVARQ
# Polio RdRp inh intensity = also measured in Polio RdRp inh; calls as there; % elongation; measured here: total intensity read-out; formula for this scale not given here;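 total fluorescence in place of polarization; lower means less elongation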
# The depositor's hits bear a star; i = inactive; . = not tested or not shown; & = joins results of further samples.
compound	Polio RdRp inh	Polio RdRp inh intensity	Mtb MenB inh	Mtb MbtI inh
CC(C(=O)Nc1ccc(F)cc1)C1SC(=O)NC1=O (configuration not stated)	96.0	104.0	-9.3	2.9
Cc1nn(CC(=O)NC(C)(C)C)c(=O)c2ccccc12	104.0	102.0	-2.9	-8.8
O=C(Nc1ccccc1)N1CC=C(c2ccc(F)cc2)CC1	101.0	104.0	-21.5	-21.3
Cc1noc(C)c1C(=O)OCC(=O)Nc1cc(C(F)(F)F)ccc1N1CCOCC1	103.0	111.0	-9.3	-2.1
O=C(Nc1scc(-c2cccs2)c1C(=O)O)c1ccc(F)cc1	103.0	102.0	0.0	.
O=C(O)C1CCCN1C(=O)OCc1ccccc1 (configuration not stated)	103.0	107.0	-1.2	.
CC1CCN(c2nc3c(c(=O)[nH]2)CCN(Cc2ccccc2)C3)CC1	100.0	103.0	-5.9	7.4
CCn1cnc2sc3c(c2c1=O)CCCC3	99.0	101.0	6.1	0.6
CCOC(=O)CCc1c(C)nc2c(c(C)nn2C(C)(C)C)c1C	105.0	99.0	3.7	22.4
COC(=O)c1cc(C)cc(=O)o1	106.0	115.0	-12.0	3.8
O=C(OCn1nnc2ccccc2c1=O)c1cccnc1	103.0	107.0	-0.2	-1.5
CCNC(=O)CCOc1cccc(C)c1	52.0*	64.0*	1.7	0.5
Cc1ccc2nc(NC(=O)C(NS(=O)(=O)c3cccc4nsnc34)C(C)C)sc2c1 (configuration not stated)	100.0	100.0	-3.3	-4.9
O=C(Cc1cccs1)N1c2ccccc2Sc2ccccc21	100.0	103.0	-16.1	6.2
O=C(O)C1OCOc2ccccc21 (configuration not stated)	100.0	100.0	0.9	-0.2
S=C(CC(=S)N1CCOCC1)N1CCOCC1	96.0	92.0	-1.5	.
Cc1cc(NC(=O)CCOc2ccc(F)cc2)no1	101.0	107.0	-7.5	-1.2
CC(=O)Oc1ccccc1C(=O)NCCC(C)C	97.0	102.0	-5.9	i
OCC1CCCN(c2ncc(C(F)(F)F)cc2Cl)C1 (configuration not stated)	99.0	98.0	-0.4	57.7
O=C(CSc1nc(-c2cccs2)cc(C(F)(F)F)n1)N1CCSCC1	100.0	101.0	-15.3	-2.2
Cc1cc(NC(=O)/C=C/c2ccco2)n(-c2nc3ccccc3n2Cc2ccc(Cl)c(Cl)c2)n1	114.0	115.0	4.1	10.9
c1ccc(-c2ncsc2-c2ccccc2)cc1	105.0	105.0	.	16.2
CCCN1C(=O)C2C(C(=O)Nc3cccc(OC)c3)C3C=CC2(O3)C1C(=O)NC1CCCCC1C (configuration not stated)	101.0	102.0	13.6	-7.0
CCC(=O)Nc1ccccc1-c1nc2ccccc2[nH]c1=O	103.0	102.0	18.2	5.1
CN=c1scc(-c2ccc3c(c2)OCCO3)n1/N=C/c1c[nH]c2ccccc12	101.0	107.0	-19.0	2.2
CC(c1ccccc1)N1C(=O)CC(Nc2ccc(N(C)C)cc2)C1=O (configuration not stated)	99.0	101.0	-25.8	17.5
O=c1nc2cc3[nH]c4c(=O)c5ccccc5c4[nH]c3cc2n1	100.0	99.0	9.0	13.0
Cc1ccc(C(=O)Nc2cccc(N3CCCC3)c2)cc1	103.0	103.0	-13.2	6.2
CCC(=S)/C=C1\Sc2ccc(OC)cc2N1CC	99.0	95.0	-70.6	9.2
Cc1ccc(OCCN2C(=O)C(C)N(c3ccc(C)cc3)C2=O)cc1 (configuration not stated)	102.0	102.0	-9.1	-6.0

# 3 compounds from above, arranged by molar mass, falling.
compound	Polio RdRp inh	Polio RdRp inh intensity	Mtb MenB inh	Mtb MbtI inh
Cc1noc(C)c1C(=O)OCC(=O)Nc1cc(C(F)(F)F)ccc1N1CCOCC1	103.0	111.0	-9.3	-2.1
O=C(Nc1scc(-c2cccs2)c1C(=O)O)c1ccc(F)cc1	103.0	102.0	0.0	.
CCNC(=O)CCOc1cccc(C)c1	52.0*	64.0*	1.7	0.5

# The listing continues.
compound	Polio RdRp inh	Polio RdRp inh intensity	Mtb MenB inh	Mtb MbtI inh
CCn1c(SCC(=O)N2CCCC2)nnc1-c1c[nH]c2ccccc12	102.0	104.0	0.0	2.7
NC(=O)CSc1nc(=O)n(Cc2cccnc2)c2c1CCC2	101.0	100.0	14.1	10.8
CS(=O)(=O)N1CCC(c2nc3c(nnn3Cc3ccc(F)cc3)c(=O)[nH]2)CC1	100.0	100.0	23.5	2.8
CC(C)(C)c1ccc(-c2nc(C#N)c(NCc3ccccc3)o2)cc1	104.0	102.0	-36.6	-61.6
CC1(C)CC2(CCCN(CC#N)C2)CCO1 (configuration not stated)	104.0	94.0	-3.1	.
CN1C/C(=C\c2ccccc2F)C(=O)/C(=C/c2ccccc2F)C1	103.0	105.0	.	3.9
COc1ccc(NC(=O)CSCC(=O)O)c(N2CCOCC2)n1	102.0	103.0	-11.2	1.4
COC(=O)c1ccc(S(=O)(=O)N(CCO)Cc2ccccc2)n1C	101.0	103.0	14.6	2.7
Cc1ccc(C(=O)C2N=C(N)OC2c2ccccc2)cc1 (configuration not stated)	99.0	103.0	-12.8	32.2
COC1OC2COC(C2O)C1O (configuration not stated)	105.0	109.0	-12.9	.
COC(=O)c1sc2nc(SCc3ccccc3C)n(N)c(=O)c2c1C	104.0	107.0	-6.0	104.5
CCN(CC)CCSc1nnc2c3ccccc3n(CC(N)=O)c2n1	101.0	107.0	-19.4	-0.8
COc1ccccc1C(=O)COC(=O)C(C)N=C1NS(=O)(=O)c2ccccc21 (configuration not stated)	110.0	112.0	-9.1	-5.1
CC1(C)CC(n2cccc2)CC(C)(C)N1	104.0	108.0	-27.3	5.5
CC1CCN(Cc2ccc(N)cc2)CC1	106.0	109.0	-3.5	.
N#CCS(=O)(=O)c1ccc(Cl)cc1	100.0	103.0	-9.0	-4.1
CCc1c(C)c2cc3c(-c4cccc(OC)c4)coc3cc2oc1=O	103.0	102.0	11.6	49.5
CCOCC(=O)Nc1c(C(=O)Nc2ccc(OCC)cc2)oc2ccccc12	103.0	103.0	0.5	-1.1
C/C(N)=C(/C#N)C(NC(=O)C1CCCCC1)(C(F)(F)F)C(F)(F)F	100.0	101.0	-28.3	-2.9
CSC1=NC2(CCCCC2)C2=C(CCCC2)N1	99.0	107.0	3.3	4.5
O=C(O)C1CCC(=O)N1C(=O)/C=C/c1ccccc1 (configuration not stated)	101.0	102.0	-34.3	20.3
C/C(=N\NC(=O)CCc1ccccc1)c1cccc(N)c1	101.0	102.0	-5.6	-29.6
Cc1ccc(N2Cc3ccccc3C2=N)cc1	109.0	116.0	-3.1	-3.0
COc1cccc(NC(=O)CSc2cn(CC(=O)N3CCOCC3)c3ccccc23)c1	101.0	101.0	-3.8	-21.8
Cc1cn2ccccc2c1P(=Nc1ccccc1)(N1CCOCC1)N1CCOCC1	99.0	109.0	0.7	-81.8
CC(C)OC(=O)Oc1ccc2oc(=O)sc2c1	107.0	107.0	-24.7	.
O=C(Cn1cnc2ccccc2c1=O)N1CCc2ccccc21	106.0	102.0	7.7	-30.0
CS(=O)(=O)N1CCN(c2cccc(Cl)c2)CC1	106.0	105.0	-18.7	.
CN1C(=O)c2ccccc2C(C(=O)Nc2ccc(F)c(Cl)c2)C1c1c[nH]c2ccccc12 (configuration not stated)	99.0	103.0	-15.4	-2.8
O=C(Cn1ncc2c1-c1ccccc1OC2)NCc1cccs1	101.0	97.0	-10.1	12.8

# Six compounds picked at random from those above:
compound	Polio RdRp inh	Polio RdRp inh intensity	Mtb MenB inh	Mtb MbtI inh
c1ccc(-c2ncsc2-c2ccccc2)cc1	105.0	105.0	.	16.2
CC1CCN(c2nc3c(c(=O)[nH]2)CCN(Cc2ccccc2)C3)CC1	100.0	103.0	-5.9	7.4
Cc1cc(NC(=O)CCOc2ccc(F)cc2)no1	101.0	107.0	-7.5	-1.2
COC1OC2COC(C2O)C1O (configuration not stated)	105.0	109.0	-12.9	.
CC1(C)CC(n2cccc2)CC(C)(C)N1	104.0	108.0	-27.3	5.5
C/C(N)=C(/C#N)C(NC(=O)C1CCCCC1)(C(F)(F)F)C(F)(F)F	100.0	101.0	-28.3	-2.9

# Additional compounds:
compound	Polio RdRp inh	Polio RdRp inh intensity	Mtb MenB inh	Mtb MbtI inh
O=C(NC1CC1)c1ccc2ccccc2n1	99.0	102.0	7.2	12.6
O=C(CSc1ccccc1C(=O)NCCCN1CCCC1=O)NCc1ccco1	105.0	110.0	-20.1	12.8
COC(=O)c1csc(S(=O)(=O)NCc2nn(-c3ccccc3)nc2C)c1OC	102.0	97.0	18.4	7.1
O=C1N(c2ccccc2)C(c2ccco2)C1(F)F (configuration not stated)	101.0	100.0	.	1.6
CCc1ccccc1S(=O)(=O)Cc1ccc(C(=O)NC(C)C)o1	102.0	102.0	-5.8	1.4
Cc1ccc(N2CCN(c3ccc(C)cc3)C2c2ccncc2)cc1	104.0	107.0	-41.0	1.6
O=C(CNc1ccccc1C(=O)NCc1ccco1)Nc1ccccc1Cl	.	.	-9.2	98.0
CC1Cn2c(nnc2-c2cc3ccccc3cc2O)S1 (configuration not stated)	101.0	99.0	-5.3	-61.2
O/N=C1\CCC2CN(C3CCCCC3)CC2C1 (configuration not stated)	100.0	105.0	0.7	.
Cc1ccc(NC(=O)NCCCN2CCOCC2)cc1	101.0	104.0	-14.2	-23.1
CCOC(=O)c1cnn(C(C)(C)C)c1C1CCN(C(=O)OC(C)(C)C)CC1	102.0	101.0	-23.5	-2.1
CCN1CC2=C(OC(N)=C(C#N)C2c2cccs2)/C(=C\c2cccs2)C1 (configuration not stated)	115.0	156.0	-4.4	17.7
Cn1cnc2c(NCc3ccccc3)nc(NCCO)nc21	98.0&100.0	102.0&99.0	-0.4	1.0
c1coc(CSCc2cn3cccnc3n2)c1	103.0	104.0	.	1.4
C=CCn1c(C)cc(-c2csc(CC#N)n2)c1C	107.0	120.0	4.1	-2.9
c1cncc(-c2nc(NCC3CCCO3)c3ccccc3n2)c1 (configuration not stated)	100.0	97.0	-1.9	9.3
O=C(Nc1ccc(CCC(=O)N2CCCC2)cc1)c1cc2ccccc2o1	103.0	104.0	-21.8	-0.9
O=C(CN1CCC(n2nnc3ccccc32)CC1)Nc1cccc(F)c1	99.0	104.0	-43.6	1.1
CC(C)c1ccc(NC(=O)C2CCC(CNS(=O)(=O)c3cccc4cccnc34)CC2)cc1 (configuration not stated)	102.0	108.0	6.2	-8.5
COc1cc2nc(CN3CCCC3c3cccs3)[nH]c(=O)c2cc1OC (configuration not stated)	95.0	102.0	-8.3	-6.2
CC(C)(C)C(=O)/C=C1\SCC(=O)N1CC(=O)Nc1ccccc1C#N	139.0	145.0	-21.8	22.8
COc1cc(/C=N/OCC(=O)N2CCN(C(C)=O)CC2)ccc1OC(F)F	106.0	94.0	4.8	7.0
Cc1cccc(-n2ncc3c(N(CC(C)C)CC(C)C)ncnc32)c1	105.0	107.0	-2.5	-1.6
COc1ccc(NC(=O)COC(=O)C2CC(=O)N(Cc3ccc(C)cc3)C2)cc1 (configuration not stated)	103.0	95.0	-19.6	.
COc1cccc(C2Nc3ccccc3C(=O)N2NS(=O)(=O)c2ccc(C)cc2)c1O (configuration not stated)	102.0	103.0	-27.8	-15.6
Oc1cccc(C=Nc2ccc(N3CCCCC3)cc2)c1O	104.0	108.0	.	-6.3
CC12CC3(C(=O)O)C1CCC23C (configuration not stated)	102.0	99.0	.	-17.5
Cc1cc(-c2ccc(C)c(S(=O)(=O)N(CC(C)C)CC(C)C)c2)on1	100.0	101.0	-20.0	11.4
Cc1c(C(=O)O)sc(=S)n1CCOc1ccccc1	99.0	94.0	-43.8	21.4
CC(OC(=O)c1ccncc1)C(=O)Nc1ccc(N2CCOCC2)cc1 (configuration not stated)	.	.	0.0	-10.9

# Entries of single compounds from above. Screens in order: Polio RdRp inh, Polio RdRp inh intensity, Mtb MenB inh, Mtb MbtI inh
# Results for `COc1cc(/C=N/OCC(=O)N2CCN(C(C)=O)CC2)ccc1OC(F)F` = 106.0, 94.0, 4.8, 7.0
# Results for `Cn1cnc2c(NCc3ccccc3)nc(NCCO)nc21` = 98.0&100.0, 102.0&99.0, -0.4, 1.0

# Further compounds.
compound	Polio RdRp inh	Polio RdRp inh intensity	Mtb MenB inh	Mtb MbtI inh
CCC(=O)ONc1nc(C)cc(C)n1	98.0	102.0	7.5	-5.2
CCNc1ccc(C2(O)C(=O)c3ccccc3C2=O)cc1	103.0	109.0	.	-15.9
CCOc1ccc(-n2c(SCC(N)=O)nc3ccccc3c2=O)cc1	106.0	102.0	-11.5	.
Cc1ccc(-n2c(C)cc(C)c(C#N)c2=O)cc1Cl	102.0	106.0	-6.5	.
COc1ccccc1N(C)S(=O)(=O)c1ccc(C(=O)N=c2c3cnn(-c4ccccc4)c3nc3n2CCCCC3)cc1	99.0	99.0	-10.9	5.7
Cc1ccc(CN2CC(C(=O)NC(c3nc4ccccc4[nH]3)C(C)C)CC2=O)cc1 (configuration not stated)	102.0	105.0	-15.9	15.9

# Some entries already given, showing only Polio RdRp inh and Mtb MbtI inh:
Structure,Polio RdRp inh,Mtb MbtI inh
CCC(=O)ONc1nc(C)cc(C)n1,98.0,-5.2
CCNc1ccc(C2(O)C(=O)c3ccccc3C2=O)cc1,103.0,-15.9
CCOc1ccc(-n2c(SCC(N)=O)nc3ccccc3c2=O)cc1,106.0,.
